High-throughput results deposited in PubChem by Broad Institute.
rRNA inh HTS: reduced GFP signal of wild-type E. coli, primary screen, bacterial rRNA inhibitor project, GFP/RFP fluorescence, OD600, single point. E. coli WT GFP vs humanized-ribosome RFP mutants, 24 h; active compounds read low; DMSO median 0, no signal -100. GFP signal change (wild-type ribosome), % (test concentration not listed). hit rate 1.6% among 350,000;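 active = significant combined selectivity score with lowered wild-type GFP, culture density cut under 30%, mutant RFP and density less affected; inactive = any of these conditions unmet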; also: one replicate is shown; some compounds called inactive have numbers as strong as hits
FGF22 binding: binders of human FGF22 protein, primary screen, FGF22 synaptogenesis inhibitor project, biophysical, thermal shift, single point; Fibroblast growth factor 22 (Homo sapiens), Q9HCT0; recombinant FGF22 thermal shift, SYPRO orange fluorescence; percent of sucrose octasulfate shift, DMSO zero; calls only at 9.99 µM; hit rate 1.5% among 340,000;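 active = melting point raised past a set limit in the mean and every replicate; three in four hits are not shown here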
Target sequence (Q9HCT0 whole entry, looked up): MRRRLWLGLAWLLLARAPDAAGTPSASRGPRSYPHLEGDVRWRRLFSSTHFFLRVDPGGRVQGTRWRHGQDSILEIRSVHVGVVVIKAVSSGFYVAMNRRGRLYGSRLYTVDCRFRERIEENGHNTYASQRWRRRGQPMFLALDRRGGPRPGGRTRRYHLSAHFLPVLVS
AF4-AF9 inh: inhibitors of AF4 peptide binding to AF9, primary screen, biochemical, AlphaScreen, biotin-AF4 peptide, FLAG-AF9, single point. AID 651704, 2012. hit rate 0.47% among 350,000. inhibition, % at 10 µM. Protein AF-9 (Homo sapiens), P42568;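 active = every replicate reaching a set inhibition limit, whatever the replicate mean, cut at about 25% in these data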;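 also: 0% = plate neutral control median and 100% = total signal loss; the record names both 10 and 1 µM as test concentration; the first replicate is given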
Target sequence (P42568 whole entry, looked up): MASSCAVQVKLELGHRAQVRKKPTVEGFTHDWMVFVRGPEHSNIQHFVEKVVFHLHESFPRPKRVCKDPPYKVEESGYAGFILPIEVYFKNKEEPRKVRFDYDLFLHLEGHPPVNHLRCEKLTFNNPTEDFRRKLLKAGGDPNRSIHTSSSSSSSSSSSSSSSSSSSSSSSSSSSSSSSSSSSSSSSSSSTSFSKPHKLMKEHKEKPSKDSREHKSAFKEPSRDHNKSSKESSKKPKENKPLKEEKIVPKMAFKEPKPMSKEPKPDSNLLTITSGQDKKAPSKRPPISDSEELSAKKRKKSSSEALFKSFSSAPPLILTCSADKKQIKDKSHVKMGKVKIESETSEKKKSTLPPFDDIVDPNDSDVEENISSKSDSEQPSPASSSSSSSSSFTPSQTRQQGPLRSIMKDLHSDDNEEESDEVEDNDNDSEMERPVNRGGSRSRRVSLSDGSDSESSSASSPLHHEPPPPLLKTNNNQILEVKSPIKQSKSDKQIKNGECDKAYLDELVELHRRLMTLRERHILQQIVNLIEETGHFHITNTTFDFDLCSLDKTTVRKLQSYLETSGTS
rRNA inh HTS OD600: also measured in rRNA inh HTS; calls as there; OD600 change, %; measured here: OD600 growth;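 optical density of the mix in the first replicate; 0 = DMSO median and -100 = no signal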
rRNA inh HTS RFP: second read-out of rRNA inh HTS, no call of its own (marks repeat the call); RFP signal change, %; measured here: RFP humanized mutant strains;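 first replicate; 0 = DMSO median and -100 = no signal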
An asterisk follows results filed as active; i = inactive; x = not tested or not shown; & = joins results of further samples. The list is partial; the hit share may differ from the screen's.

SMILES	rRNA inh HTS	rRNA inh HTS OD600	rRNA inh HTS RFP	FGF22 binding	AF4-AF9 inh
O=C(NCCN1CCC(n2c(=O)[nH]c3ccccc32)CC1)c1cccnc1Cl	3	9	-1.3	i	1.9
Cc1ccc(S(=O)(=O)N(C)C[C@@H]2Oc3ccc(NC(=O)NC(C)C)cc3C(=O)N([C@H](C)CO)C[C@H]2C)cc1	2	11	-1.2	i	-4.1
Cc1noc(C)c1S(=O)(=O)Nc1cccc2c1O[C@@H](CN(C)S(=O)(=O)c1ccc(Cl)cc1)[C@@H](C)CN([C@H](C)CO)C2=O	-6	-16	1.9	i	2.0
COCC#Cc1ccc2c(c1)O[C@H](CN(C)S(=O)(=O)c1ccc(OC)cc1)[C@@H](C)CN([C@H](C)CO)S2(=O)=O	-4	2	0.7	i	2.6
C[C@@H]1CCCCO[C@@H](CN(C)Cc2ccccc2)[C@@H](C)CN([C@H](C)CO)C(=O)c2cc(NC(=O)Cc3ccccc3)ccc2O1	2	-8	-0.4	i	1.1
CN(C)C(=O)C[C@@H]1CC[C@H]2[C@@H](COC[C@@H](O)CN2S(=O)(=O)c2ccccc2Cl)O1	i	x	x	i	-3.1
CCC(=O)N[C@H]1CC[C@H](CC(=O)NCC2CCCCC2)O[C@@H]1CO	2	7	-0.6	i	0.1
O=C(C[C@@H]1CC[C@H](NC(=O)Nc2ccc(C(F)(F)F)cc2)[C@@H](CO)O1)NCc1cc(F)cc(F)c1	0	2	-1.6	i	0.0
C[C@H]1CN([C@@H](C)CO)S(=O)(=O)c2ccc(-c3cccc(F)c3)cc2O[C@H]1CN(C)CC1CC1	-2	-3	2.0	i	6.5
C[C@@H]1CN([C@H](C)CO)S(=O)(=O)c2ccc(-c3ccccc3)cc2O[C@@H]1CN(C)Cc1ccccn1	-2	-16	5.8	i	2.8
C[C@H](CO)N1C[C@H](C)[C@@H](CN(C)Cc2cccnc2)Oc2cc(-c3cncnc3)ccc2S1(=O)=O	-3	-2	1.0	i	2.0
CCCN(C)C[C@@H]1Oc2cc(-c3ccc(F)cc3)ccc2S(=O)(=O)N([C@@H](C)CO)C[C@@H]1C	2	-3	-1.8	i	0.3
O=S1(=O)N[C@H](Cc2ccccc2)COc2cccc(N3CCN(Cc4ccccc4F)CC3)c21	-29	-29	-6.8	i	3.2
CC(C)CC#Cc1cnc2c(c1)C(=O)N([C@@H](C)CO)C[C@H](C)[C@@H](CN(C)C(=O)Nc1ccccc1F)O2	1	-14	5.6	i	-0.2
C[C@H]1CN(S(=O)(=O)C(C)(C)C)[C@@H](CCO)/C1=C\c1ccccc1	4	5	4.3	i	-2.1
C[C@@H]1CN([C@@H](C)CO)C(=O)c2cc(NC(=O)C3CCCCC3)ccc2O[C@@H](C)CCCCO[C@H]1CN(C)Cc1ccc2c(c1)OCO2	-1	-2	-3.8	i	-0.8
CCCNC(=O)C[C@@H]1CC[C@@H]2[C@H](COC[C@H](O)CN2Cc2ccccc2F)O1	-4	-4	-3.3	i	-3.4
Cc1nn(CC(C)C)c(Cl)c1C(=O)NCC1CCCO1 (centres undefined)	16	4	2.1	i	5.0
Cc1ccc(S(=O)(=O)N(C)C[C@H]2OCCCC[C@@H](C)Oc3ccc(NS(=O)(=O)c4cn(C)cn4)cc3C(=O)N([C@H](C)CO)C[C@H]2C)cc1	-5	-4	1.4	i	-0.4
CC1(C)CC(=O)C=C(c2cn[nH]n2)C1	5	9	2.1	i	-0.9
Cc1ccc(NC(=O)COC(=O)c2cccc(S(=O)(=O)N3CCCCCC3)c2)cc1	-3	-1	-0.5	i	-2.0
O=C(C[C@@H]1C[C@H]2c3cc(NC(=O)NC4CCCC4)ccc3O[C@H]2[C@@H](CO)O1)NCc1ccccc1F	3	6	1.1	i	-0.2
CCCC(=O)Nc1ccc2c(c1)C(=O)N(C)C[C@H](OC)[C@H](C)CN(Cc1nccs1)[C@@H](C)CO2	1	-2	-1.0	i	0.5
CN(Cc1ccccc1)C(=O)c1ncn2c1c(=O)[nH]c1cccnc12	11	10	1.8	i	-6.0
Cc1ccc(S(=O)(=O)Nc2ccc3c(c2)C(=O)N([C@H](C)CO)C[C@@H](C)[C@H](CN(C)C(=O)CCCN(C)C)OCCCC[C@@H](C)O3)cc1	4	-4	0.0	i	-6.3
COc1ccc(NC(=O)N(C)C[C@@H]2OCCCC[C@@H](C)Oc3ccc(NC(=O)Nc4ccc(F)cc4)cc3C(=O)N([C@H](C)CO)C[C@H]2C)cc1	-1	-8	-1.1	i	-1.6
C[C@H](CO)N1C[C@H](C)[C@H](CN(C)S(=O)(=O)c2ccc(Cl)cc2)Oc2c(NC(=O)c3ccc(-c4nccs4)cc3)cccc2C1=O	-4	-4	1.0	i	1.4
COc1ccc([C@H]2N[C@]3(CCCN(CC4CCCCC4)C3=O)[C@H]3C(=O)N(C)C(=O)[C@@H]23)cc1	1	-3	-9.3	i	1.1
CCCN(C)C[C@@H]1OCCCC[C@@H](C)Oc2ccc(NS(=O)(=O)c3ccc(OC)cc3)cc2C(=O)N([C@H](C)CO)C[C@@H]1C	13&1	23&5	1.9&-2.1	i	-0.9&3.3
C[C@H](CO)N1C[C@H](C)[C@@H](CN(C)Cc2ccc(C(=O)Nc3ccccc3N)cc2)Oc2ccc(N(C)C)cc2C1=O	-1	5	-2.9	i	12
C[C@@H]1CN([C@H](C)CO)C(=O)c2cc(NC(=O)Nc3ccc(C(F)(F)F)cc3)ccc2O[C@H]1CN(C)CC1CCCCC1	4	5	-0.6	i	-0.3
Cc1ccccc1-c1cnc2c(c1)C(=O)N([C@@H](C)CO)C[C@H](C)[C@@H](CN(C)CC1CCCC1)O2	2	2	-2.1	i	-8.1
C[C@@H]1CN([C@@H](C)CO)C(=O)c2c(c3ccccc3n2C)-c2ccccc2CO[C@H]1CN(C)Cc1ccc(F)cc1	-14	-34	23	i	5.3
Cc1cc(C(=O)N2CCCC(N3CCN(c4ccccc4C)CC3)C2)no1 (centres undefined)	8	12	2.1	i	2.3
C[C@@H]1CCCCO[C@H](CN(C)S(=O)(=O)c2cccs2)[C@H](C)CN([C@@H](C)CO)C(=O)c2cc(NC(=O)c3ccncc3)ccc2O1	-4	-3	3.7	i	0.0
C[C@H]1CN([C@@H](C)CO)C(=O)c2cc(NC(=O)Nc3ccccc3)ccc2O[C@@H]1CN(C)S(=O)(=O)c1cccs1	0	5	0.0	i	0.0
CCOc1ccc(CCN2C(=S)N([C@@H](Cc3ccccc3)CN3CCC[C@@H]3CN3C(=S)NC[C@@H]3Cc3ccc(O)cc3)C[C@@H]2CC(C)C)cc1	20	13	10	i	2.5
COc1cccc(S(=O)(=O)N[C@@H]2CC[C@H](CC(=O)NCc3ccncc3)O[C@@H]2CO)c1	-2	1	-1.5	i	-2.0
COC(=O)[C@H]1C[C@@]2(O)CN(S(=O)(=O)c3ccc(C)cc3)C[C@@]2(OC(=O)NC2CCCC2)C[C@H]1C(=O)OC	-3	2	1.6	i	-1.9
C[C@@H]1CN([C@H](C)CO)C(=O)Cc2cc(NS(C)(=O)=O)ccc2O[C@@H]1CN(C)S(=O)(=O)c1ccc(F)cc1	2	8	-0.3	i	-3.2
C[C@H]1CN([C@@H](C)CO)C(=O)c2cccc(NC(=O)c3cnccn3)c2O[C@@H]1CN(C)Cc1ccc(-c2ccccc2)cc1	-9	-9	4.4	i	4.9
O=C(Nc1ccc(F)cc1)Nc1ccc2c(c1)[C@H]1C[C@H](CC(=O)N3CCOCC3)O[C@H](CO)[C@H]1O2	1	6	1.2	i	-5.3
COc1cc(NC(=O)Nc2nnc([C@H]3C[C@H](O)[C@@H](CO)O3)s2)cc(OC)c1OC	8	0	5.0	i	-5.0
C[C@@H]1CN([C@@H](C)CO)C(=O)Cc2cc(NS(=O)(=O)c3ccccc3)ccc2O[C@@H]1CN(C)S(C)(=O)=O	4	3	-0.7	i	-2.4
C[C@H](CO)N1C[C@H](C)[C@@H](CN(C)C(=O)Cc2cccnc2)Oc2ncc(C3=CCCCC3)cc2C1=O	-1	-2	0.4	i	-1.1
C[C@@H]1CN([C@@H](C)CO)C(=O)Cc2cc(NS(=O)(=O)c3ccc(Cl)cc3)ccc2O[C@H]1CN(C)S(=O)(=O)c1ccccc1	-2	6	-4.2	i	-1.3
C[C@H]1CCCCO[C@H](CN(C)Cc2ccncc2)[C@@H](C)CN([C@@H](C)CO)C(=O)c2cc(NS(=O)(=O)c3ccc(F)cc3)ccc2O1	-2	2	-0.9	i	-3.3
O=C(C[C@@H]1CC[C@H]2[C@@H](COC[C@H](O)CN2C(=O)Nc2ccc(Cl)cc2)O1)NCc1ccncn1	-6	-3	2.7	i	0.4
CCNC(=O)C1CCCN(C(=O)c2c(-c3ccccc3)noc2C)CC1 (centres undefined)	12	9	-0.4	i	0.0
COc1ccccc1C#Cc1cnc2c(c1)C(=O)N([C@H](C)CO)C[C@@H](C)[C@@H](CN(C)C(C)=O)O2	1	6	-5.5	i	-1.6
CCCCn1nnnc1C1(C)CCC(=O)N1CC(F)(F)F (centres undefined)	6	18	0.7	i	-2.8
COc1cc(F)ccc1-c1csc(C(NC(C)=O)c2ccccc2)n1 (centres undefined)	15	20	1.8	i	-1.5
CCCC(=O)N1CCC1(C)C(=O)Nc1ccc2nccnc2c1 (centres undefined)	18	11	-0.5	i	-0.1
C[C@H](NC(=O)C[C@@H]1C[C@H]2c3cc(NC(=O)NC4CCCC4)ccc3O[C@H]2[C@H](CO)O1)c1ccccc1	-9	-19	0.9	i	-0.8
C[C@H]1CN([C@@H](C)CO)C(=O)c2cc(NC(=O)Cn3cnnn3)ccc2O[C@H]1CN(C)CC1CCCCC1	0	4	-1.5	i	-1.3
O=C(NCC[C@H]1CC[C@H](NC(=O)C2CCCCC2)[C@H](CO)O1)c1cnccn1	2	2	1.0	i	0.2
C[C@H](CO)N1C[C@H](C)[C@H](CN(C)Cc2ccc(C(=O)Nc3ccccc3N)cc2)Oc2ccc(NS(=O)(=O)c3ccc(Cl)cc3)cc2C1=O	-1	-4	2.3	i	-2.9
CC(C)(C)[S@](=O)N1Cc2cc(C(=O)NCc3ccccc3F)nc(-c3cccc(-c4cncnc4)c3)c2[C@@H]1CCO	-35	-63	25	i	4.8
CCOC(=O)C1=CCN(S(=O)(=O)c2cccc(Cl)c2)C1c1ccccc1 (centres undefined)	-23	-37	-9.2	i	-1.7
C[C@@H]1CN([C@H](C)CO)C(=O)c2cc(-c3ccccc3)cnc2O[C@H]1CN(C)C(=O)Cc1cccnc1	-2	-2	-2.6	i	-3.2
Next results
SMILES	rRNA inh HTS	rRNA inh HTS OD600	rRNA inh HTS RFP	FGF22 binding	AF4-AF9 inh
C[C@H]1CCCCO[C@@H](CN(C)C(=O)c2ccncc2)[C@@H](C)CN([C@@H](C)CO)C(=O)c2cc(NS(=O)(=O)c3ccc(Cl)cc3)ccc2O1	-1	-7	-1.4	i	0.1
Cc1noc(C)c1S(=O)(=O)Nc1ccc2c(c1)C(=O)N([C@H](C)CO)C[C@H](C)[C@@H](CN(C)C(=O)c1ccncc1)OCCCC[C@H](C)O2	2	9	-1.2	i	-2.4
O=C(C[C@H]1C[C@H]2c3cc(NS(=O)(=O)c4ccc(F)cc4)ccc3O[C@H]2[C@H](CO)O1)NCc1cccnc1	-1	-9	0.9	i	-0.7
C[C@@H]1CCCCO[C@@H](CN(C)C(=O)Nc2ccccc2)[C@@H](C)CN([C@H](C)CO)C(=O)c2cc(N(C)C)ccc2O1	4&7	9&8	-0.5&-0.3	i	-1.1&3.5&1.5
